TRPV1 potentiator: HTS Assay for Compounds that Act as Potentiators of the Vanilloid Receptor 1; Transient receptor potential cation channel subfamily V member 1 (Homo sapiens), Q8NER1; TRPV1-expressing cells, Fluo-8 calcium influx, capsaicin EC20 potentiation; host cell line not named in the record; control for the full effect not named in the record; potentiation, % at 8.33 µM; 320,000 compounds, 0.02% hits; AID 540277, 2011; active means potentiation above 80%; inconclusive means 30% to 80%; inactive means below 30%; also: 0% is about no effect
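TRPV1-expressing cells were cultured overnight at 35.5C and loaded with Fluo-8 calcium dye for 40 to 90 min at room temperature. After a 10 s baseline, compound was added and calcium influx was read kinetically for 3 min (ex 480/em 520 nm).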
TRPML1 blocker: qHTS for Inhibitors of the Human Mucolipin Transient Receptor Potential 1 (TRPML1) | Mucolipin-1 (Homo sapiens), Q9GZU1 | TRPML1-inducible cells, Ca2+ dye fluorescence, FDSS; stronger effect = lower value; inhibition of EC80 agonist-evoked calcium signal | activity change, negative = inhibition, % (concentration not given with the values) | 390,000 compounds, 0.02% hits | AID 624415, 2012; in the data active means activity change below about -50%; inconclusive means about -30% to -50%; inactive means above about -30%;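 also: stimulus is agonist 54-4 at its EC80 concentration; % is scaled to controls: 0 for no effect and ±100 for the full control effect; the text of the record puts the active cut at -80%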
Target sequence (Q9GZU1 whole entry, looked up): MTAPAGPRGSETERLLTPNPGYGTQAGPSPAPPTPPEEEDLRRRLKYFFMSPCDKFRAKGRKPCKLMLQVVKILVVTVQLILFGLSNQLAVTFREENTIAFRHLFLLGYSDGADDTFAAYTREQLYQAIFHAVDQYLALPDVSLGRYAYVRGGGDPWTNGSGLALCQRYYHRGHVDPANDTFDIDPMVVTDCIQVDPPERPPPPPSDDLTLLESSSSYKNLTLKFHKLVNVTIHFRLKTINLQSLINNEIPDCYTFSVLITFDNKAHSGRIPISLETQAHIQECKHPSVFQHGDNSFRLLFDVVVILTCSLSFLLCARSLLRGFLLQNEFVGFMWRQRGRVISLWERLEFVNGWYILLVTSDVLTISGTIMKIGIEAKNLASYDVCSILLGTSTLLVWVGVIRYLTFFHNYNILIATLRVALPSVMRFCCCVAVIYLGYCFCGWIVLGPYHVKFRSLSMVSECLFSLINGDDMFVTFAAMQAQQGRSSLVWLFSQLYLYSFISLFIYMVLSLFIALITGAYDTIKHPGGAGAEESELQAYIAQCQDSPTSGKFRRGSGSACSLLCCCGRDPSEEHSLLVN
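TRPML1-DL cells, Tet-induced overnight (~16 h, 37 °C) at 1,500 cells/well, were loaded with Ca8 no-wash dye plus quencher for 45-90 min at room temperature. Compounds were pinned during FDSS kinetic reading; agonist 54-4 at EC80 (4 uM final) then added.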
ClpP mod: qHTS Assay for Activators of ClpP | AID 651965, 2013 | purified B. subtilis ClpP, FRET peptide cleavage, 20 min | Potency, µM (titrated, usually from 57.5 µM), without a hit: top-dose activity change, negative = active | ATP-dependent Clp protease proteolytic subunit (Bacillus subtilis (strain 168)), P80244 | 340,000 compounds, 1.9% hits; active = well fitted falling curve with a large enough effect; inconclusive = small, poorly fitted or top-dose-only effect; inactive = no such curve, though single readings can be large or run the other way; also: potency is read from the fitted curve at half-maximal effect; the source files actives as falling curves though it sought activators and does not explain the sign; nearly all actives have a fitted effect of over 65% in size; many hits overshoot -100%
Target sequence (P80244 whole entry, looked up): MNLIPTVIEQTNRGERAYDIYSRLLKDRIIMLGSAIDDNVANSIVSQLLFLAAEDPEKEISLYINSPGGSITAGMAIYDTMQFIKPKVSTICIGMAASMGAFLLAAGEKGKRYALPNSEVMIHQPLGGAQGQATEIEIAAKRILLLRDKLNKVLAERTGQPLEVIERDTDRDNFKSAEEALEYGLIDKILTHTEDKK
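Buffer: 100 mM Tris/HCl pH8, 100 mM KCl, 0.05% low protease BSA, 2.5% glycerol, 0.01% Tween-20. ClpP 10 microg/mL final; 20 min RT; delta FRET normalized to ADEP and DMSO controls.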
gsp agonist: qHTS for Agonist of gsp, the Etiologic Mutation Responsible for Fibrous Dysplasia/McCune-Albright Syndrome: qHTS | gsp mutant cells, cAMP HTRF, 30 min; control for the full effect not named in the record | Potency, µM (series often up to 76.9 µM), for the others: at the top dose activation (cAMP increase), actives largely listed as activators | 340,000 compounds, 0.13% hits | AID 624287, 2012; active = well fitted activation curve with a large enough effect; inconclusive = small, poorly fitted or top-dose-only effect, or another doubt; inactive = no such curve, though single readings can be large or run the other way; cell line not stated here;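 also: phosphodiesterase inhibitor Ro 20-1724 added with compounds to block cAMP breakdown; potency is read from the fitted curve at half-maximal effect; nearly all actives have a fitted effect of over 60% in size; about a fifth of the inactives were tested at one dose only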
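Cells stably selected in G418 were plated at 2000/well, grown 16-24 hr, then given compounds in DMSO with the PDE inhibitor […] (300 uM solution added) for 30 min at 37C; cAMP was read by HTRF.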
gsp antag: qHTS for Antagonists of gsp, the Etiologic Mutation Responsible for Fibrous Dysplasia/McCune-Albright Syndrome: qHTS; gsp-mutant cells, cAMP HTRF, 30 min; control for the full effect not named in the record; Potency, µM (series often up to 76.9 µM), without a hit: top-dose activity change, negative = inhibition, actives largely listed as inhibitors; 340,000 compounds, 0.4% hits; AID 624288, 2012; active = falling curve of any shape with a large fitted effect; inconclusive = falling curve, mostly with a smaller effect; inactive = flat or rising curve; cell line not stated here;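 also: intracellular cAMP measured with PDE inhibitor Ro 20-1724 present during compound exposure; potency is read from the fitted curve at half-maximal effect; % is scaled to controls: 0 for no effect and ±100 for the full control effect; nearly all actives have a fitted effect of over 65% in size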
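Measurement of cellular cAMP by homogeneous time-resolved fluorescence following a 30 min compound exposure at 37C. The PDE inhibitor […] was present throughout; the assay buffer was DPBS with 0.05% BSA and 0.005% Tween 20.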
Sfp PPTase inh: qHTS Assay for Inhibitors of Bacillus subtilis Sfp phosphopantetheinyl transferase (PPTase); Biochemical Sfp PPTase activity, qHTS; Potency, µM, inactives show max response, negative = inhibition, usual class: inhibitors; AID 1490, 2009; 310,000 compounds, 3.5% hits; active = well fitted inhibition curve with a large enough effect; inconclusive = small, poorly fitted or top-dose-only effect, or another doubt; inactive = no such curve, though single readings can be large or run the other way;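 also: the enzyme is Sfp with the accession as filed and its product quenches rhodamine fluorescence; potency is read from the fitted curve at half-maximal effect; 0% = enzyme reaction without inhibitor and -100% = no enzyme wells; top concentration of the series not given in the record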
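Fluorescence-quenching assay with 15 nM Sfp, 5 uM rhodamine-CoA and 12.5 uM BHQ-2-labelled ybbR peptide in pH 7.6 Hepes/MgCl2 buffer. Enzyme was pre-incubated with compound for 15 min at room temperature. Rate was taken from the 30-min fluorescence change (525/598 nm).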
Menin MLL FP FL: qHTS Assay for Inhibitors Targeting the Menin-MLL Interaction in MLL Related Leukemias: Competition With Fluorescein Labeled MLL-derived Peptide; Fluorescence polarization, fluorescein-MLL peptide displacement from menin; FP activity change, % at 61.4 µM; 290,000 tested, under 10 active; inconclusive = falling polarisation curve, or a change in total fluorescence; inactive = total fluorescence flat and polarisation flat or rising; no compound was filed as active; the % refers to the polarisation; negative = inhibition;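 also: % of control where 0% means no effect; inhibitors lower the polarisation; unlabelled MLL peptide was the positive control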
* = called active by the depositor; ? = inconclusive; nt = not tested or not shown; [ ] = dose if it differs, or a comment. Random draw from the library, and some 4.9% of all compounds hit somewhere here.

SMILES	TRPV1 potentiator	TRPML1 blocker	ClpP mod	gsp agonist	gsp antag	Sfp PPTase inh	Menin MLL FP FL
O=S1(=O)CC(O)C(Nc2ccc(Cl)cc2)C1 (stereo not given)	-7	-13	-2.4%	-2%	12%	11%	-2.9
CN1CCN(S(=O)(=O)c2ccc(NC(=S)NC(=O)c3ccccc3)cc2)CC1	-5	4	1.8%	-34%	5%	?	1.0
Cc1csc2ncc(C(=O)NCc3ccccn3)c(=O)n12	-5	-9	5.2%	?	21%	2%	1.1
COc1cc(NC(=O)COC(C)=O)cc(OC)c1OC	3	24	0.0%	?	-12%	17%	-8.5
N#Cc1ccc(COC(=O)c2ccc3c(c2)OCO3)cc1	nt	24	-5.3%	?	-6%	nt	nt
O=C(CCc1nc2ccccc2[nH]1)NC1CCCCC1	-10	12	1.4%	10%	6%	16%	0.8
CC(C)c1ccc(/C=N/Nc2ccc(C(=O)O)cc2)cc1	0	9	-2.7%	29%	1%	1%	0.1
C/C=C\C(=O)Nc1cccc(C2=NOC3(C2)C[C@@H](C(N)=O)N(C(=O)C2(C)CC2)C3)c1 (stereo not given in full)	?	-4	0.6%	16%	6%	13%	-1.0
Cc1cc(C)c(S(=O)(=O)N/N=C/c2ccc3c(c2)OCO3)c(C)c1	10	1	-1.5%	15%	10%	10%	-1.3
CCOC(=O)c1sc(Nc2nc3cc4c(cc3s2)OCO4)cc1C	-5	1	28µM*	-26%	11%	-8%	4.2
C=CCOC(=O)C1=C[C@H](c2cn(C(C)=O)c3ccccc23)C[C@H](OCc2ccc(CO)cc2)O1	-1	17	0.8%	?	-25%	10%	5.2
CC(=O)NC(C1C(=O)CC(C)(C)CC1=O)(C(F)(F)F)C(F)(F)F	5	4	0.1%	?	-2%	5%	-1.2
O=C1N(Cc2cccc(Cl)c2)C[C@@H]2C[C@@H](c3ccsc3)N3CCC[C@@]123	-1	-14	nt	3%[15.4 µM]	4%	0%	8.7
Cc1cnc(C(=O)OCC(=O)Nc2ccc3c(c2)OCCO3)cn1	-9	20	-1.0%	-33%	-16%	nt	nt
Cc1ccc2nsnc2c1NC(=O)CCc1ccccc1	6	21	3.0%	-8%[15.4 µM]	11%	6%	3.0

Retrieved by compound from the entries so far (four):
SMILES	TRPV1 potentiator	TRPML1 blocker	ClpP mod	gsp agonist	gsp antag	Sfp PPTase inh	Menin MLL FP FL
C=CCOC(=O)C1=C[C@H](c2cn(C(C)=O)c3ccccc23)C[C@H](OCc2ccc(CO)cc2)O1	-1	17	0.8%	?	-25%	10%	5.2
COc1cc(NC(=O)COC(C)=O)cc(OC)c1OC	3	24	0.0%	?	-12%	17%	-8.5
CCOC(=O)c1sc(Nc2nc3cc4c(cc3s2)OCO4)cc1C	-5	1	28µM*	-26%	11%	-8%	4.2
O=C1N(Cc2cccc(Cl)c2)C[C@@H]2C[C@@H](c3ccsc3)N3CCC[C@@]123	-1	-14	nt	3%[15.4 µM]	4%	0%	8.7

(further entries)
SMILES	TRPV1 potentiator	TRPML1 blocker	ClpP mod	gsp agonist	gsp antag	Sfp PPTase inh	Menin MLL FP FL
CCCn1nc(NC(=O)c2cccs2)c2cc3cc(OC)ccc3nc21	4	0	-0.7%	7%[15.4 µM]	-13%	-11%	5.9
C/C(CC(=O)NC1CCCCC1)=N\NC(=O)c1ccccc1C	0	-3	nt	-7%[15.4 µM]	17%	12%	-0.4
Cc1[nH]nc(N2CCCCC2)c1[N+](=O)[O-]	-2	13	-0.9%	21%	14%	13%	6.9
O=C(CCC(=O)Nc1ccc(Cl)cc1)N/N=C/c1ccc2c(c1)OCO2	-8	-10	-1.6%	14%	3%	0%	nt
O=C(CNC(=O)C1CCCCC1)OCn1nnc2ccccc2c1=O	7	23	1.1%	-17%	-17%	12%	1.0
O=C(NCc1cccs1)c1cnc(Cl)c(Cl)c1	-8	26	nt	3%[15.4 µM]	-23%	5%	-1.7
O=C(Nc1ccccc1N1CCCCC1)C1CCN(S(=O)(=O)c2cccc(C(F)(F)F)c2)CC1	1	-9	-3.3%	?	-7%	nt	nt
O=C(Cn1ncc(Cl)c(Cl)c1=O)NC1CCCCC1	-24	-26	-1.4%	?	-12%	nt	nt
O=C1CN(C(=O)COC(=O)c2ccc(C(F)(F)F)cc2)c2ccccc2N1	nt	1	-2.6%	21%	14%	nt	nt
Cc1cc(C(=O)Nc2ccccc2Cc2ccccc2)no1	-6	16	0.6%	-3%	2%	11%	nt
COc1cc(/C=C(/NC(C)=O)C(=O)O)cc(Cl)c1OCc1ccc(Br)cc1	-2	-6	nt	13%	6%	0%	3.5
O=C(c1ccccc1F)N(NC(=O)C(O)(c1ccccc1)c1ccccc1)c1ccccc1	7	10	-2.2%	14%	-7%	2%	5.1
CCOc1ccccc1N1CC(C(=O)N2CCN(Cc3ccc(C#N)cc3)CC2)CC1=O (stereo not given)	-1	-3	-0.4%	-20%	4%	nt	nt
Cc1ccc(S(=O)(=O)N2CCN(C(=O)CCOc3ccccc3C)CC2)cc1C	19	-5	0.3%	-22%	0%	nt	nt
CCOc1ccc(S(=O)(=O)N2CCC(C(=O)NC3CC3)CC2)cc1Cl	-5	25	nt	32%[15.4 µM]	6%	17%	-5.1
CCCCC(=O)NC(c1ccccc1Cl)c1c(O)ccc2ccccc12 (stereo not given)	2	11	0.1%	9%[15.4 µM]	?	4%	-0.5
C/C(=N\Nc1nc(C(C)(C)C)cs1)c1ccc(O)cc1	3	-16	-2.1%	-2%	0%	50µM*	1.4
O=C(NC1CCCC1)C1CCCN(S(=O)(=O)c2cccc3cccnc23)C1 (stereo not given)	6	6	-2.1%	4%	6%	7%	3.4
O=C(NCCc1ccc(Cl)cc1Cl)c1cccnc1	-16	9	0.4%	1%	-8%	1%	nt
N#Cc1ccc(-n2nnc3ccccc3c2=O)c([N+](=O)[O-])c1	nt	7	nt	-15%[15.4 µM]	6%	nt	nt
O=C(CSc1nc(-c2ccco2)cc(C(F)(F)F)n1)NC1CCCC1	nt	-12	-8.5%	-56%[inhibitor]	1%	-22%	5.8
O=C(O)CC(NC(=O)Cc1ccccc1)c1cc([N+](=O)[O-])ccc1Cl (stereo not given)	-11	-3	nt	10%[15.4 µM]	1%	7%	1.0
CNC(=O)C1CCN(S(=O)(=O)c2c(C)noc2/C=C/c2cccc(C)c2)CC1	-15	16	51%	12%	-8%	7%	0.1
CS(=O)(=O)N1CCC(Oc2ccccc2C(=O)N2CCNC(=O)C2)CC1	28	29	nt	-17%	9%	-4%	-8.1
CCCCCCOC(=O)C1=C(C)NC(=O)NC1c1ccc(O)cc1 (stereo not given)	?	2	-4.0%	18%	4%	-7%	-0.7
O=C(OCC(=O)N1CCCCC1)c1cc2ccccc2cc1O	-15	6	-4.2%	-32%[inhibitor]	-1%	0%	4.0
Cc1ccc(Cn2c(=O)c3c(nc4n3CCN4Cc3ccco3)n(C)c2=O)cc1	-4	1	-3.8%	-14%	-15%	7%	5.6
COc1cc(Cl)c(CN2CCCC(CO)(Cc3ccccc3F)C2)cc1OC (stereo not given)	-2	-1	nt	-68%[inhibitor]	-6%	3%	0.3
Cn1c(=O)n(C)c2cc(S(=O)(=O)NCCc3ccccc3)ccc21	6	-7	1.0%	3%	-11%	-4%	4.3
CCOc1cc(CNc2ccccc2)cc(Br)c1OCc1ccc(F)cc1	2	17	-2.7%	-28%	-6%	?	3.2

Full records as entered above.
Cc1ccc(Cn2c(=O)c3c(nc4n3CCN4Cc3ccco3)n(C)c2=O)cc1 across the screens: TRPV1 potentiator: -4; TRPML1 blocker: 1; ClpP mod: -3.8%; gsp agonist: -14%; gsp antag: -15%; Sfp PPTase inh: 7%; Menin MLL FP FL: 5.6
O=C(NC1CCCC1)C1CCCN(S(=O)(=O)c2cccc3cccnc23)C1 (stereo not given) across the screens: TRPV1 potentiator: 6; TRPML1 blocker: 6; ClpP mod: -2.1%; gsp agonist: 4%; gsp antag: 6%; Sfp PPTase inh: 7%; Menin MLL FP FL: 3.4

New compounds follow:
SMILES	TRPV1 potentiator	TRPML1 blocker	ClpP mod	gsp agonist	gsp antag	Sfp PPTase inh	Menin MLL FP FL
CC(C)CC(OC(=O)c1ccc(Cl)nc1)C(=O)NC1CCCC1 (stereo not given)	8	14	nt	-1%[15.4 µM]	-34%	17%	-1.6
O=C(CSc1ccc([N+](=O)[O-])cc1)Nc1cccc(S(=O)(=O)N2CCOCC2)c1	nt	8	0.2%	-12%	-16%	nt	nt
Cc1cc(C(=O)OCn2nnc3ccccc3c2=O)c(C)o1	-8	4	-1.0%	-5%	-3%	-1%	-0.2
CCCCCn1nc(C)c(/C=N/NC(=O)c2ccoc2C)c1C	?	12	0.5%	2%	0%	-14%	1.3
N#CC1(c2ccccc2)CCCN1C(=O)c1ccccc1Br (stereo not given)	1	0	0.4%	-11%	-4%	4%	2.0
COc1ccccc1NC(=O)CS(=O)(=O)c1cn(CC(=O)N(C(C)C)C(C)C)c2ccccc12	nt	16	-18%	-6%[15.4 µM]	?	nt	nt
CCOC(=O)c1ccccc1NC(=O)C1CC(=O)N(C2CCCCC2)C1 (stereo not given)	-5	0	-18%	15%	-8%	9%	nt
S=c1[nH]nc(Cc2cccc3ccccc23)n1-c1ccccc1	14	7	-3.0%	11%	-24%	18%	0.7
Cc1nc2cc(NCc3cccs3)ccc2n1C	27	-4	nt	26%[15.4 µM]	-34%	3%	0.2

Compound activity (PubChem BioAssay)
